# Screens from PubChem.
# Sfp PPTase inh = Sfp phosphopantetheinyl transferase inhibition. Q9F4F7. Biochemical Sfp PPTase activity, qHTS. Potency, µM, without a hit: max response, negative = inhibition, most hits filed as inhibitors. 3.5% of 310,000 active. AID 1490; active means well fitted inhibition curve with a large enough effect; inconclusive means small, poorly fitted or top-dose-only effect, or another doubt; inactive means no such curve, though single readings can be large or run the other way;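 further: the enzyme is Sfp with the accession as filed and its product quenches rhodamine fluorescence; potency means the concentration at half of the fitted maximal effect; 0% = enzyme reaction without inhibitor and -100% = no enzyme wells; top concentration of the series not given in the record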
#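 Reaction rates are the 30-min fluorescence difference (ex 525, em 598 nm) in wells containing 15 nM Sfp, 5 uM rhodamine-CoA and 12.5 uM BHQ-2-YbbR at pH 7.6 with 10 mM MgCl2.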
# Menin MLL FP FL = displaces fluorescein MLL peptide from human menin. 290,000 tested, under 10 active. Fluorescence polarization, fluorescein-MLL peptide displacement from menin. AID 1766. FP activity change, % at 61.4 µM; inconclusive = falling polarisation curve, or a change in total fluorescence; inactive = total fluorescence flat and polarisation flat or rising; no compound was filed as active; the % refers to the polarisation; negative = inhibition;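 further: % of control where 0% means no effect; inhibitors lower the polarisation; unlabelled MLL peptide was the positive control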
# Numbers without * were called inactive; ? = inconclusive; & = joins results of further samples; [ ] = another dose, or the depositor's remark.
# Every second line gives: Sfp PPTase inh | Menin MLL FP FL
- CCC1=C2CC[C@H]3C(=O)N(CC(=O)OC)C(=O)[C@H]3[C@H]2[C@@]2(C)C(=NCCc3c[nH]c4ccccc34)OC(=O)N2C1=O
  17% | -10
- CCCNC(=O)c1[nH]c(C)c(C(=O)OCC)c1C
  16% | 3.3
- CCC(=O)NC[C@H](Cc1ccc(OCCc2nc(-c3ccccc3)oc2C)cc1)N/C(C)=C\C(=O)c1ccc(C(F)(F)F)cc1
  9% | 1.9
- O=C(O)CCc1cc(I)c(Oc2ccc(O)c(I)c2)c(I)c1
  -4% | 1.1
- O=C(CN1C(=O)c2ccccc2C1=O)Nc1nc(-c2cccc([N+](=O)[O-])c2)cs1
  9% | -0.9
- CC1(C)C(=O)C=C[C@]2(C)C1CC(=O)[C@]1(C)C2CC[C@@]2(C)C(c3ccoc3)OC(=O)C3O[C@@]321 (stereo not given in full)
  11% | 0.3
- ClCC1=Nc2cccc3cccc(c23)N1
  63µM* | -1.9
- Cc1ccc(S(=O)(=O)Nc2ccc(-c3nc4cc(NS(=O)(=O)c5ccc(C)cc5)ccc4o3)cc2)cc1
  8% | -1.0
- O=C(NCc1ccccc1)[C@]1(C(F)(F)F)C[C@H](CCC2CCCCC2)CCCO1
  3% | 0.5
- CSCC[C@H](N)C(=O)N[C@@H](CCCN=C(N)N)C(=O)N[C@@H](CC(C)C)C(=O)N[C@@H](Cc1ccccc1)C(=O)N[C@H](C(=O)O)C(C)C
  -1% | -0.7
- C[C@]12C[C@@](C)(C=C1/C=C/c1ccc(C(F)(F)F)cc1)C(=O)C[C@H]2c1ccc(C(F)(F)F)cc1
  13% | 3.9
- CCOC(OCC)P(=O)(O)CCCNCc1ccc(Cl)c(Cl)c1
  15%&-2% | -15
- CC1CC=CC2C1C(=O)N(Cc1ccccc1)C2c1ccoc1 (stereo not given)
  -9% | ?
- O=c1cc(-c2ccc(O)cc2O)oc2ccccc12
  -3% | ?
- O=C1[C@H]2[C@H]3[C@H](O)[C@H](O)C/C(=N/OCc4ccccc4)[C@H]3CC[C@@H]2C(=O)N1c1cccc(Oc2ccccc2)c1
  2% | 1.2[11.7 µM]

# The list continues.
# Every second line gives: Sfp PPTase inh | Menin MLL FP FL
- CCOC(=O)Cc1nc2ccccc2o1
  10% | 2.9
- CC(C)C(=O)OCC(=O)[C@@]12OC(C3CCCCC3)O[C@@H]1CC1C3CCC4=CC(=O)C=C[C@]4(C)C3[C@@H](O)C[C@@]12C (stereo not given in full)
  12% | 8.2
- FC(F)(F)c1cc(NC(=S)Nc2ccc3ccccc3c2)cc(C(F)(F)F)c1
  -2% | -1.2
- COc1ccc(C(CC(=O)N2CCN(c3ccccc3)CC2)c2c(OC)cc(OC)c3c(-c4ccccc4)cc(=O)oc23)cc1 (stereo not given)
  7% | 5.2
- O=[N+]([O-])c1cc(C(F)(F)F)ccc1N/N=C/c1cc2ccccc2nc1Cl
  9% | -8.9
- O=C(Cc1ccc(Cl)cc1)NNC(=O)C1CC=CCC1C(=O)O (stereo not given)
  16% | -0.6
- CCCC1(C(=O)OC)C=C2C(=C(c3ccccc3)C(=O)C2C)CN1 (stereo not given)
  -17% | ?
- CCN(CC)c1ccc(/C=C/c2nc3ccccc3s2)cc1
  18µM* | ?
- COC(=O)CN1C(=O)[C@@H]2[C@H](C1=O)[C@@H]1CC(C(=O)OC)=C[C@@H](C(=O)OC)C3C1=C(C(=O)C31CCCCC1)[C@@H]2C (stereo not given in full)
  -9% | 2.7
- CC12C=C(/C=C/CCc3ccco3)C(C)(C1)C(CCc1ccco1)CC2=O (stereo not given)
  ? | 7.0[11.7 µM]
- Fc1ccc(/C=C2\CCCC3=C2NC(=S)NC3c2ccc(F)cc2)cc1 (stereo not given)
  45µM* | 3.4
- COC(=O)C1=C[C@@H](C(=O)OC)C2C3=C(C(=O)[C@]2(C)NC(=O)c2ccccc2)[C@H](C)[C@@H]2C(=O)N(C)C(=O)[C@@H]2[C@@H]3C1 (stereo not given in full)
  1% | -3.0
- CCn1c(SCC(=O)c2c(N)n(C)c(=O)n(C)c2=O)nnc1-c1ccccc1
  6% | -1.8
- CCCC[C@@H]1CN2[C@H](c3ccc(Br)cc3)[C@@H](C)CC[C@H]2C(=O)O1
  17% | -0.1[11.7 µM]
- O=C1OC(OC(=O)c2cccnc2Nc2cccc(C(F)(F)F)c2)c2ccccc21 (stereo not given)
  9% | -0.5

# (continued)
# Every second line gives: Sfp PPTase inh | Menin MLL FP FL
- COc1ccc(COC(=O)N/N=C2/C[C@@H](O)[C@@H](O)[C@@H]3[C@@H]4C(=O)N(C[C@@H]5CCCO5)C(=O)[C@H]4CC[C@@H]23)cc1
  -14% | 2.2[11.7 µM]
- CCCCCC(O)/C=C/C=C\CCCCCCCC(=O)O (stereo not given)
  4% | 4.4
- COc1cccc([C@@H]2Oc3ccc(Br)cc3C[C@H]2OC(=O)N[C@H](C)C2CCCCC2)c1
  3% | -0.2
- C=CCC(Nc1ccccc1)c1ccc(OC)c(OC)c1 (stereo not given)
  1% | 3.3
- C/C=C(\C=C\[C@@H](C)C/C=C/CC/C=C/C=C\C[C@@H](OC)/C(C)=C\C=C(C)C)CC(=O)O
  1% | 0.5
- COc1cc(OC)cc(C(=O)Nc2cccc(-c3ccc4nncn4n3)c2)c1
  15% | 5.9
- CC1=C(C(=O)OCc2ccccc2)C(c2ccc(C3CCCCC3)cc2)NC(=O)N1CCCCCC(=O)O (stereo not given)
  -18% | -1.9
- C=CCOC(=O)C(C(C)=O)C(NC(=O)OC)c1ccccc1 (stereo not given)
  17% | -0.8[11.7 µM]
- Cc1c(O)c(O)cc2c1oc1c3ccccc3oc(=O)c21
  -11% | 11
- COc1ccc([C@@H]2CC(=O)c3c(O)cc(O[C@@H]4O[C@H](CO[C@@H]5O[C@@H](C)[C@H](O)[C@@H](O)[C@H]5O)[C@@H](O)[C@H](O)[C@H]4O)cc3O2)cc1
  6% | 0.5
- Cc1nc2ccccc2oc1=O
  -3% | -1.7
- CCCCOc1ccc(C(=O)NCCc2cccs2)cc1
  7% | 0.2
- Cc1cc(NC(=O)Cn2c(=O)n(CCCCC(=O)NC3CCN(Cc4ccccc4)CC3)c(=O)c3ccccc32)n[nH]1
  4% | -1.5
- C[C@H]1Cc2c(COc3ccccc3)nc3c(c2CO1)CN(S(=O)(=O)c1ccc2c(c1)OCCN2C)CC3
  7% | 2.7[11.7 µM]
- O=C(NS(=O)(=O)c1ccccc1Cl)c1ccc[nH]1
  1% | 1.9

# (next part)
# Every second line gives: Sfp PPTase inh | Menin MLL FP FL
- Nc1nc2c(c(=O)[nH]1)N=C(CNc1ccc(C(=O)NC(CCC(=O)O)C(=O)O)cc1)CN2 (stereo not given)
  -19% | ?
- Cc1cc(C)c(-c2cc([C@H](C)O/N=C\[C@@H](C)[C@H](OCc3ccccc3)C(C)C)on2)c(C)c1
  -3% | 0.3[11.7 µM]
- CCCOc1ccc(/C(O)=C2/C(=O)C(=O)N(CCN(CC)CC)C2c2ccncc2)cc1 (stereo not given)
  10% | 3.4
- COc1cccc(CS(=O)(=O)c2nnnn2C2CCCCC2)c1
  11% | 1.0
- CC(C)(C)c1ccccc1NC(=O)c1c(O)c2cccc3c2n(c1=O)CC3
  -26% | 6.9
- O=S(=O)(Nc1cc(O)cc2cccnc12)c1ccc(Br)s1
  ? | 0.2
- COc1cc2[nH]c(C(=O)Nc3ccc(F)cc3)cc2c(OC)c1OC
  3% | 2.6
- O=C1NN(c2ccc(Cl)c(Cl)c2)C(=O)/C1=C/c1cccc(OC(=O)c2cccs2)c1
  ? | 3.8
- C#CCCCO/N=C1/[C@H]2O[C@@H]2[C@@H](O)[C@H]2[C@H]1CCn1c(=O)n(C)c(=O)n12
  11% | -5.7[11.7 µM]
- COCCCn1c2nc3ccccc3nc2c2c(=O)n(Cc3cccs3)cnc21
  2% | 1.8
- Cc1ccc(CNC(=O)c2ccc3nc4[nH]c5ccccc5c4nc3c2)cc1
  -2% | 1.0
- CC[C@H](C)[C@@H](NC(=O)O[C@@H]1C(=O)c2cc(OC)ccc2O[C@H]1c1cccc(OC)c1)C(=O)OC
  -15% | -5.5
- O=C(COC(=O)CC(c1ccccc1)c1ccccc1)Nc1ccc(F)c(F)c1
  11% | 0.5
- O=C(O)c1ccc2c(c1)C(=O)N([C@]1(C(=O)O)CC1c1ccccc1)C2=O (stereo not given in full)
  19% | -0.8
- C[C@H]1C(=O)N(S(=O)(=O)c2ccccc2[N+](=O)[O-])[C@H]1c1ccc(-c2ccccc2)cc1
  14% | -5.5

# The list continues:
# Every second line gives: Sfp PPTase inh | Menin MLL FP FL
- CC1CC(C)CN(CCCNC(=O)C2CCN(c3ncnc4c3sc3cccc(F)c34)CC2)C1 (stereo not given)
  23% | 2.3
- C=C1C(=O)O[C@@H]2C3OC3(C)CC/C=C(\C)CC[C@@H]12 (stereo not given in full)
  -1% | -14
- CC(=O)O[C@@H]1CC2C(C)(C)C(=O)C=C[C@]2(C)C2CC[C@]3(C)C(=CC[C@H]3C3CO[C@@H](C(C)(C)O)[C@H](O)C3)[C@@]21C (stereo not given in full)
  89µM* | 13
- CC(=O)NC1[C@H](O)C[C@@](O)(C(=O)O)O[C@H]1[C@H](O)[C@H](O)CO (stereo not given in full)
  23% | -4.6
- C/C1=C2/[N-]C(C(CC(N)=O)[C@@]2(C)CCC(=O)NCC(C)OP(=O)([O-])O[C@H]2[C@@H](O)[C@@H](n3cnc4cc(C)c(C)cc43)O[C@@H]2CO)[C@]2(C)N=C(/C(C)=C3N=C(/C=C4N=C1C(CCC(N)=O)C\4(C)C)[C@@H](CCC(N)=O)[C@]\3(C)CC(N)=O)[C@@H](CCC(N)=O)[C@]2(C)CC(N)=O.CC(=O)O.[Co] (stereo not given in full)
  -21% | 7.5
- C/C(CCC(=O)OC[C@H]1O[C@H](C#Cc2ccccc2)C=C[C@@H]1Oc1ccc(C)cc1)=N\OC[C@@H](O)[C@H]1O[C@@H]2OC(C)(C)O[C@@H]2[C@H]1O
  12% | 0.8
- N#Cc1ccc2c(c1)C[C@]1(c3ccsc3)OC3=C(C(=O)OC4(CCCCC4)C3)C2O1
  3% | 7.4[11.7 µM]
- CCOC(=O)c1cn(-c2ccc(F)c(F)c2)c2c(F)c(F)c(F)c(F)c2c1=O
  15% | 1.7
- CCCc1ccc(C(=O)O)cc1
  17% | -0.5
- CCCCNS(=O)(=O)c1ccc2nc(-c3cccs3)cc(C(=O)NCC(OC)OC)c2c1
  -6% | 4.2
- Oc1cn2c(n1)Nc1ccc(Cl)c(Cl)c1C2
  6% | -2.4
- CCOC(=O)CCN1C(=O)[C@H]2[C@H]3[C@H](O)[C@H](O)C/C(=N/NC(=O)OCc4ccc(OC)cc4)[C@@H]3CC[C@@H]2C1=O
  8% | 0.7[11.7 µM]
- Cc1c(C(=O)NC2CCCCC2)sc2nc3ccc(N)cc3n12
  26% | -4.1
- O=C1C(Cl)=C(NC2CCc3ccccc32)C(=O)c2ncccc21 (stereo not given)
  45µM* | 0.2
- CCCCN1CCC[C@H]1CNC(=O)c1cc(C#N)c2ccccc2c1OC
  1% | 6.0

# Reprinted at random: 2 records from the list.
# Every second line gives: Sfp PPTase inh | Menin MLL FP FL
- ClCC1=Nc2cccc3cccc(c23)N1
  63µM* | -1.9
- CC(=O)NC1[C@H](O)C[C@@](O)(C(=O)O)O[C@H]1[C@H](O)[C@H](O)CO (stereo not given in full)
  23% | -4.6

# Further compounds.
# Every second line gives: Sfp PPTase inh | Menin MLL FP FL
- N#C[C@H]1[C@H](c2ccccc2)[C@](C#N)(C(=O)c2ccccc2)[C@@H]2C=Cc3ccccc3N21
  2% | 0.3
- O=S(=O)(Nc1cc(O)cc2cccnc12)c1ccc(Cl)s1
  -25% | 7.0
- CC[C@H](C)[C@H](NC(=O)[C@H](Cc1ccc(O)cc1)NC(=O)[C@H](Cc1cnc[nH]1)NC(=O)[C@H](CCCNC(=N)N)NC(=O)[C@H](CC(C)C)NC(=O)[C@H](C)NC(=O)[C@H](CO)NC(=O)[C@H](Cc1ccc(O)cc1)NC(=O)[C@H](Cc1ccc(O)cc1)NC(=O)[C@H](CCCNC(=N)N)NC(=O)[C@H](C)NC(=O)[C@H](CC(C)C)NC(=O)[C@H](CC(=O)O)NC(=O)[C@H](CCC(=O)O)NC(=O)[C@H](C)NC(=O)[C@@H]1CCCN1C(=O)[C@H](C)NC(=O)[C@H](CC(=O)O)NC(=O)[C@H](CCC(=O)O)NC(=O)CNC(=O)[C@@H]1CCCN1C(=O)[C@H](CC(N)=O)NC(=O)[C@H](CC(=O)O)NC(=O)[C@@H]1CCCN1C(=O)[C@H](CCCCN)NC(=O)[C@H](CO)NC(=O)[C@@H]1CCCN1C(=O)[C@@H](N)Cc1ccc(O)cc1)C(=O)N[C@@H](CC(N)=O)C(=O)N[C@@H](CC(C)C)C(=O)N[C@@H](CC(C)C)C(=O)N[C@H](C(=O)N[C@@H](CCCNC(=N)N)C(=O)N1CCC[C@H]1C(=O)N[C@@H](CCCNC(=N)N)C(=O)N[C@@H](Cc1ccc(O)cc1)C(N)=O)[C@@H](C)O
  -18% | -0.3
- CCCCC/C=C\C/C=C\C/C=C\C/C=C\CCCCCC(=O)NCC(=O)O
  -1% | 1.6
- CC1OCC23CC[C@@]4(C)CCC(C)(C)C[C@H]4[C@]2(C)CCC12C3CC[C@@]1(C)C2C(=O)CC(=O)[C@@H]1C (stereo not given in full)
  1% | 3.2
- CCC(=O)Nc1nc2n(n1)C(c1ccc(OC)cc1)C=C(c1ccccc1)N2 (stereo not given)
  ? | ?
- CCc1cc2c(nc1CC)CCN(CC/C(C)=N/OC[C@@H](C)[C@H](OCc1ccccc1)C(C)C)C2
  21% | -1.2[11.7 µM]

# Only part of the results is shown; count on the stated rates, not on these rows.
